A1 apoptosis 2: A1 inhibition read as caspase activation. AID 2465. MEF A1-2A-BIM cells, caspase-Glo luminescence, 3 h; percent of clofoctol response, DMSO zero. caspase activation, % (test concentration not listed). 24,000 tested, under 10 active; in the data active means caspase activation above about 5.9%;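 further: wells of about 30 µL received 50 nL stock; the first replicate is given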
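System: mouse embryonic fibroblasts co-expressing A1 and BIM (A1-2A-BIM), primed for A1 dependence; amount: 2500 cells/well; doses: 50 nL pinned compound; schedule: cells settled overnight, compound exposure 3 h at 37 °C, 5% CO2; detection: Caspase-Glo 3/7 luminescence, 1 h at room temperature; read-out: Caspase-3/7 activation, seen as rise in luminescence signal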
An asterisk follows results filed as active.

SMILES | A1 apoptosis 2
C[C@H]1CN([C@@H](C)CO)C(=O)c2cccc(NS(=O)(=O)c3cn(C)cn3)c2O[C@@H]1CN(C)C(=O)Nc1cccc2ccccc12 | 0.2
CNC[C@H]1OCCCC[C@H](C)Oc2ccc(NS(=O)(=O)c3cccs3)cc2C(=O)N([C@H](C)CO)C[C@@H]1C | 0.5
C[C@H](CO)N1C[C@H](C)[C@H](CN(C)C(=O)Nc2ccccc2)Oc2ccc(NC(=O)Nc3ccc4c(c3)OCO4)cc2CC1=O | -0.3
Cc1noc(C)c1NC(=O)N(C)C[C@@H]1Oc2c(NC(=O)c3nc4ccccc4s3)cccc2C(=O)N([C@H](C)CO)C[C@@H]1C | 0.4
C[C@H](CO)N1C[C@H](C)[C@@H](CN(C)S(=O)(=O)c2cn(C)cn2)OCCCC[C@H](C)Oc2ccc(NC(=O)c3ccccc3)cc2C1=O | -0.4
C[C@@H]1CN([C@H](C)CO)C(=O)c2cc(NC(=O)Nc3ccc(C(F)(F)F)cc3)ccc2O[C@@H](C)CCCCO[C@H]1CN(C)Cc1ccccc1 | 1.9
C[C@H](CO)N1C[C@H](C)[C@@H](CN(C)Cc2ccc3c(c2)OCO3)Oc2ccc(NS(=O)(=O)c3ccccc3)cc2CC1=O | -0.2
COc1ccc(S(=O)(=O)N(C)C[C@H]2OCc3cnnn3CCCC(=O)N([C@H](C)CO)C[C@H]2C)cc1 | -0.8
Cc1noc(C)c1NC(=O)Nc1ccc2c(c1)C(=O)N([C@@H](C)CO)C[C@H](C)[C@@H](CN(C)S(=O)(=O)c1ccc(F)cc1)OCCCC[C@H](C)O2 | 1.6
Cc1noc(C)c1S(=O)(=O)Nc1ccc2c(c1)CC(=O)N([C@@H](C)CO)C[C@@H](C)[C@@H](CN(C)C(=O)Nc1ccc(C(F)(F)F)cc1)O2 | 0.9
CC(C)NC(=O)Nc1cccc2c1O[C@@H](CN(C)Cc1ccc(-c3ccccc3)cc1)[C@@H](C)CN([C@@H](C)CO)C2=O | -1.2
C[C@@H]1CN([C@H](C)CO)C(=O)c2cccc(NC(=O)Nc3ccc(C(F)(F)F)cc3)c2O[C@@H]1CN(C)C(=O)NC1CCCCC1 | 0.8

The list goes on, starting with the last 6 of the part before.
SMILES | A1 apoptosis 2
C[C@H](CO)N1C[C@H](C)[C@@H](CN(C)Cc2ccc3c(c2)OCO3)Oc2ccc(NS(=O)(=O)c3ccccc3)cc2CC1=O | -0.2
COc1ccc(S(=O)(=O)N(C)C[C@H]2OCc3cnnn3CCCC(=O)N([C@H](C)CO)C[C@H]2C)cc1 | -0.8
Cc1noc(C)c1NC(=O)Nc1ccc2c(c1)C(=O)N([C@@H](C)CO)C[C@H](C)[C@@H](CN(C)S(=O)(=O)c1ccc(F)cc1)OCCCC[C@H](C)O2 | 1.6
Cc1noc(C)c1S(=O)(=O)Nc1ccc2c(c1)CC(=O)N([C@@H](C)CO)C[C@@H](C)[C@@H](CN(C)C(=O)Nc1ccc(C(F)(F)F)cc1)O2 | 0.9
CC(C)NC(=O)Nc1cccc2c1O[C@@H](CN(C)Cc1ccc(-c3ccccc3)cc1)[C@@H](C)CN([C@@H](C)CO)C2=O | -1.2
C[C@@H]1CN([C@H](C)CO)C(=O)c2cccc(NC(=O)Nc3ccc(C(F)(F)F)cc3)c2O[C@@H]1CN(C)C(=O)NC1CCCCC1 | 0.8
CNC[C@H]1OCc2cn(nn2)CCCC(=O)N([C@@H](C)CO)C[C@H]1C | 2.2
C[C@@H]1CN([C@H](C)CO)C(=O)c2cc(NS(=O)(=O)c3cn(C)cn3)ccc2O[C@@H](C)CCCCO[C@H]1CN(C)C(=O)Nc1ccc2c(c1)OCO2 | -0.6
CC(C)NC(=O)N(C)C[C@@H]1Oc2ccc(NC(=O)Cn3cnnn3)cc2CC(=O)N([C@@H](C)CO)C[C@@H]1C | 0.4
COc1ccc(NC(=O)Nc2cccc3c2O[C@H](CN(C)CC2CCCCC2)[C@@H](C)CN([C@@H](C)CO)C3=O)cc1 | 1.2
COc1ccc(S(=O)(=O)Nc2ccc3c(c2)C(=O)N([C@@H](C)CO)C[C@H](C)[C@H](CN(C)C(=O)NC2CCCCC2)O3)cc1 | 0.0
C[C@H]1CN([C@@H](C)CO)C(=O)c2cccc(NC(=O)CCCCCC(=O)Nc3ccccc3N)c2O[C@H]1CN(C)Cc1ccc(C(F)(F)F)cc1 | 0.8
C[C@H]1CN([C@@H](C)CO)C(=O)c2cc(NC(=O)Nc3ccc(C(F)(F)F)cc3)ccc2O[C@@H]1CN(C)Cc1ccc(C(=O)Nc2ccccc2N)cc1 | -0.5
CCCC[C@]12CCCC(=O)N1CCc1c2[nH]c2ccccc12 | 1.1
C[C@@H]1CN([C@@H](C)CO)C(=O)c2cc(NC(=O)Nc3ccc(F)cc3)ccc2O[C@@H]1CN(C)S(=O)(=O)c1ccccc1 | -0.4
C[C@@H]1CN([C@@H](C)CO)C(=O)c2cc(NS(C)(=O)=O)ccc2O[C@@H](C)CCCCO[C@H]1CN(C)C(=O)Nc1ccc(C(F)(F)F)cc1 | -0.8
Cc1noc(C)c1NC(=O)Nc1ccc2c(c1)C(=O)N([C@H](C)CO)C[C@@H](C)[C@@H](CN(C)C(=O)C1CCCCC1)OCCCC[C@@H](C)O2 | 0.8
C[C@@H]1CN([C@@H](C)CO)C(=O)Cc2cc(NC(=O)NC3CCCCC3)ccc2O[C@H]1CN(C)S(=O)(=O)c1ccc(Cl)cc1 | 0.4
C[C@@H]1CN([C@@H](C)CO)C(=O)c2cc(NC(=O)Cc3cn(C)c4ccccc34)ccc2O[C@H]1CN(C)Cc1ccc(-c2ccccc2)cc1 | -0.3
Cc1noc(C)c1NC(=O)N(C)C[C@@H]1Oc2c(NC(=O)C3CCCCC3)cccc2C(=O)N([C@H](C)CO)C[C@@H]1C | -0.7
C[C@@H]1CN([C@H](C)CO)C(=O)c2cc(NC(=O)C3CCCCC3)ccc2O[C@H]1CN(C)S(=O)(=O)c1cn(C)cn1 | 0.6
C[C@H]1CN([C@@H](C)CO)C(=O)c2cccc(NC(=O)C3CCOCC3)c2O[C@@H]1CN(C)S(=O)(=O)c1ccc(Cl)cc1 | 0.4
C[C@@H]1CN([C@H](C)CO)C(=O)Cc2cc(NC(=O)NC3CCCCC3)ccc2O[C@@H]1CN(C)Cc1ccc(C(=O)Nc2ccccc2N)cc1 | 0.0
C[C@@H]1CN([C@H](C)CO)C(=O)c2cccc(NC(=O)C3CC3)c2O[C@@H]1CN(C)S(=O)(=O)c1cccs1 | -1.1
C[C@@H]1CCCCO[C@@H](CN(C)S(=O)(=O)c2cn(C)cn2)[C@H](C)CN([C@@H](C)CO)C(=O)c2cc(NC(=O)C3CCCCC3)ccc2O1 | 0.4
C[C@@H]1CCCCO[C@H](CN(C)Cc2ccc(C(F)(F)F)cc2)[C@H](C)CN([C@@H](C)CO)C(=O)c2cc(NC(=O)Nc3ccc(C(F)(F)F)cc3)ccc2O1 | -0.5
COc1ccc(C#Cc2ccc3c(c2)[C@]2(C(=O)N3)[C@H](C(=O)NC[C@H](O)c3ccccc3)[C@H]3C(=O)O[C@H](c4ccccc4)[C@H](c4ccccc4)N3[C@@H]2c2ccc(O)cc2)cc1 | -0.5
Cc1ccc(S(=O)(=O)N(C)C[C@@H]2OCCCC[C@H](C)Oc3ccc(NC(=O)Nc4ccc(C(F)(F)F)cc4)cc3C(=O)N([C@@H](C)CO)C[C@@H]2C)cc1 | -2.0
CC(C)NC(=O)N(C)C[C@H]1OCCCC[C@@H](C)Oc2ccc(NS(=O)(=O)c3ccccc3)cc2C(=O)N([C@@H](C)CO)C[C@@H]1C | 0.4
COc1ccc(NC(=O)Nc2ccc3c(c2)C(=O)N([C@@H](C)CO)C[C@H](C)[C@@H](CN(C)Cc2ccc(Cl)c(Cl)c2)OCCCC[C@@H](C)O3)cc1 | 0.5
C[C@@H]1CN([C@H](C)CO)C(=O)c2cc(NC(=O)CCCN(C)C)ccc2O[C@@H]1CN(C)Cc1ccc(C(F)(F)F)cc1 | 0.0
COc1ccc(NC(=O)Nc2cccc3c2O[C@@H](CN(C)C)[C@H](C)CN([C@@H](C)CO)C3=O)cc1 | -0.3
COc1ccc(CN(C)C[C@@H]2Oc3c(NC(=O)c4nc5ccccc5s4)cccc3C(=O)N([C@@H](C)CO)C[C@H]2C)cc1 | -0.7
COc1ccc(S(=O)(=O)Nc2cccc3c2O[C@H](CN(C)Cc2ccc(Oc4ccccc4)cc2)[C@H](C)CN([C@@H](C)CO)C3=O)cc1 | 1.1
COC(=O)C1=C/C(C)=C\C(C)N(Cc2ccc(OC)cc2)/C=C\1C(=O)OC (stereo not drawn) | -1.1
C[C@@H]1CN([C@H](C)CO)C(=O)c2cc(NC(=O)Cc3ccccc3)ccc2O[C@H]1CN(C)C(=O)Nc1ccc(F)cc1 | 1.3
O=C(NCc1ccccc1)C1=C[C@H](C2CC2)C[C@H](OCCCCO)O1 | -0.1
COc1ccc(S(=O)(=O)Nc2ccc3c(c2)CC(=O)N([C@H](C)CO)C[C@H](C)[C@H](CN(C)S(=O)(=O)c2ccc(OC)cc2)O3)cc1 | 1.2
O=C(O)CCCCCCC(=O)N/N=C/c1ccccc1[N+](=O)[O-] | -1.6
C[C@H](CO)N1C[C@H](C)[C@@H](CN(C)S(=O)(=O)c2ccc(Cl)cc2)Oc2c(NS(C)(=O)=O)cccc2C1=O | 0.9
C=CCNC(=O)[C@H]1[C@@H]2C(=O)O[C@@H](c3ccccc3)[C@@H](c3ccccc3)N2[C@@H](c2ccccc2OCCO)[C@]12C(=O)Nc1ccc(C#CCCO)cc12 | -0.1
C[C@@H]1CN([C@@H](C)CO)C(=O)c2cccc(NS(=O)(=O)c3ccc(Cl)cc3)c2O[C@H]1CN(C)Cc1ccc(-c2ccccc2)cc1 | -1.2

Single entries from above:
In A1 apoptosis 2, COC(=O)C1=C/C(C)=C\C(C)N(Cc2ccc(OC)cc2)/C=C\1C(=O)OC (stereo not drawn) reads -1.1
In A1 apoptosis 2, O=C(O)CCCCCCC(=O)N/N=C/c1ccccc1[N+](=O)[O-] reads -1.6

(more compounds)
SMILES | A1 apoptosis 2
C[C@H](CO)N1C[C@H](C)[C@@H](CN(C)Cc2ccc(C(=O)O)cc2)Oc2ccc(NS(=O)(=O)c3cccs3)cc2C1=O | 2.1
C[C@@H]1CN([C@H](C)CO)C(=O)c2cc(NC(=O)c3ccncc3)ccc2O[C@@H]1CN(C)Cc1ccncc1 | 0.9
COc1ccc(S(=O)(=O)Nc2cccc3c2O[C@@H](CN(C)C(=O)NC(C)C)[C@H](C)CN([C@@H](C)CO)C3=O)cc1 | 0.1
COc1ccc(NC(=O)Nc2ccc3c(c2)C(=O)N([C@@H](C)CO)C[C@H](C)[C@@H](CN(C)C(=O)Nc2ccc(OC)cc2)O3)cc1 | 0.6
C[C@@H]1CN([C@H](C)CO)C(=O)Cc2cc(NS(=O)(=O)c3ccc(Cl)cc3)ccc2O[C@H]1CN(C)Cc1ccncc1 | 1.4
C[C@@H]1CN([C@H](C)CO)C(=O)c2cc(NS(=O)(=O)c3cn(C)cn3)ccc2O[C@@H]1CN(C)Cc1ccc(C(F)(F)F)cc1 | -1.1
CCO[C@H]1OC(C(=O)Nc2ccccc2)=C[C@@H](c2cn(C(C)=O)c3ccccc23)[C@@H]1CCCO | -0.3
C[C@H]1CN([C@@H](C)CO)C(=O)c2cc(NC(=O)Nc3ccc(F)cc3)ccc2O[C@H]1CN(C)C(=O)Nc1ccccc1 | -0.6
C[C@@H]1CCCCO[C@@H](CN(C)C(=O)Nc2ccc3c(c2)OCO3)[C@@H](C)CN([C@@H](C)CO)C(=O)c2cc(NC(=O)NC3CCCCC3)ccc2O1 | -1.1
CC(C)NC(=O)N(C)C[C@@H]1Oc2c(NS(=O)(=O)c3ccc(Cl)cc3)cccc2C(=O)N([C@H](C)CO)C[C@@H]1C | 0.9
CC(C)NC(=O)N(C)C[C@@H]1OCCCC[C@@H](C)Oc2ccc(NC(=O)CCCN(C)C)cc2C(=O)N([C@@H](C)CO)C[C@@H]1C | 0.5
Cc1noc(C)c1S(=O)(=O)N(C)C[C@H]1Oc2ccc(NS(=O)(=O)c3ccc(Cl)cc3)cc2C(=O)N([C@@H](C)CO)C[C@H]1C | 1.1
C[C@@H]1CN([C@@H](C)CO)C(=O)c2cc(NS(C)(=O)=O)ccc2O[C@@H]1CN(C)C | -0.2
Cc1ccc(S(=O)(=O)N(C)C[C@@H]2Oc3c(NC(=O)C4CCCCC4)cccc3C(=O)N([C@@H](C)CO)C[C@H]2C)cc1 | 1.3
C[C@H](CO)N1C[C@H](C)[C@H](CN(C)S(=O)(=O)c2ccc(F)cc2)Oc2ccc(NC(=O)Nc3ccccc3)cc2C1=O | 0.1
C[C@@H]1CCCCO[C@H](CN(C)Cc2ccc3c(c2)OCO3)[C@H](C)CN([C@H](C)CO)C(=O)c2cc(NC(=O)Nc3ccc4c(c3)OCO4)ccc2O1 | 0.6
CC(C)NC(=O)Nc1ccc2c(c1)C(=O)N([C@@H](C)CO)C[C@@H](C)[C@H](CN(C)C(=O)C1CCCCC1)OCCCC[C@@H](C)O2 | -0.2
C[C@@H]1CCCCO[C@H](CN(C)C(=O)C2CCCCC2)[C@@H](C)CN([C@@H](C)CO)C(=O)c2cc(NS(C)(=O)=O)ccc2O1 | 0.3
COc1ccc(S(=O)(=O)Nc2ccc3c(c2)C(=O)N([C@@H](C)CO)C[C@H](C)[C@H](CN(C)S(=O)(=O)c2ccc(Cl)cc2)OCCCC[C@H](C)O3)cc1 | -0.7
C[C@@H]1CN([C@@H](C)CO)C(=O)Cc2cc(NC(=O)c3ccncc3)ccc2O[C@@H]1CN(C)CC1CC1 | -1.0

An excerpt; rates above refer to the full screens.
